# KCNQ2 inh: KCNQ2 potassium channel inhibitors, primary screen, cell-based, CHO-K1, FluxOR thallium flux, B-score (AID 2156). 310,000 compounds, 1.1% hits. B-score at 10 µM. 20 min; hits give low values; only compounds with negative scores are shown here; some inactives read as strong as hits;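 active means fluorescence ratio B-score at most minus 3 library SDs, with starting brightness B-score within 2 library SDs, cut at about -5.5 in these data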
# Target sequence (O88943 whole entry, looked up): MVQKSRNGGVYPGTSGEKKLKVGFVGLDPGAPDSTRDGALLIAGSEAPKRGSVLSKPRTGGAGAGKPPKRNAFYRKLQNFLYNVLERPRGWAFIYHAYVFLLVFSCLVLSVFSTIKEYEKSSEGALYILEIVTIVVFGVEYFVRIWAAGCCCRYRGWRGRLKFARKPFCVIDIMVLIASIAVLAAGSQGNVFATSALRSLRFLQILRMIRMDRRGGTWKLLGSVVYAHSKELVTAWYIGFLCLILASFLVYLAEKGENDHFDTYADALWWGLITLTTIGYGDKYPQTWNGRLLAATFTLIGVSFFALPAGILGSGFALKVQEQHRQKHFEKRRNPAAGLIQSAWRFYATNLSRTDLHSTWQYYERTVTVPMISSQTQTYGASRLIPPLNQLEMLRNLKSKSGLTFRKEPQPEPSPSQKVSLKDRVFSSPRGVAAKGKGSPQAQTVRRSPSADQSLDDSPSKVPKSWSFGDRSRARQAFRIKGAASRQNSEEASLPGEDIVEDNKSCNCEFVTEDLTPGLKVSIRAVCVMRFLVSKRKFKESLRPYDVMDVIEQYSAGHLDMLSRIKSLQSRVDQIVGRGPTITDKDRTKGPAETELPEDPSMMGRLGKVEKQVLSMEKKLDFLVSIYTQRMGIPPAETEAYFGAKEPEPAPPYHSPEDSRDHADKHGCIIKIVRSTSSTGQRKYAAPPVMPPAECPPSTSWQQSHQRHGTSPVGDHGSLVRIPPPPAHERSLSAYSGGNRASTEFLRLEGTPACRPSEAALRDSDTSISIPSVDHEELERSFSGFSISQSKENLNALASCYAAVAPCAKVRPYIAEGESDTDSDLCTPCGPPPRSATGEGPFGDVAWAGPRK
# KCNQ2 inh baseline: also measured in KCNQ2 inh; calls as there; B-score; measured here: initial fluorescence intensity artifact check;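 brightness before thallium and not channel activity; 0 = typical well and far values either way flag optical interference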
# Starred values were filed as active, the others as inactive; i = inactive. An excerpt; count on the stated rates, not on these rows.
KCNQ2 inh | KCNQ2 inh baseline | molecule
i | -0.91 | CCOc1ccccc1OCC(=O)NCCc1ccc(S(N)(=O)=O)cc1
i | 57.9 | CN(C)c1ccc(/C=C/C(=O)c2cccc(Br)c2)cc1
i | -0.36 | CC(C)CCn1c(=O)[nH]c2ccccc21
i | 0.64 | O=C(NC12CC3CC(CC(C3)C1)C2)c1ccc(S(=O)(=O)N2CCOCC2)cc1
i | -0.88 | COc1ccc(CCN(/C=C2\Sc3ccccc3C2=O)C(C)=O)cc1OC
i | -0.31 | O=C1c2ccccc2-c2onc3ccc(Oc4ccccc4)c1c23
i | -1.23 | O=C1SC(c2ccccc2)=N/C1=C/c1ccco1
i | 2.78 | O=C(c1ccc(F)cc1F)N(Cc1ccccn1)Cc1ccco1
i | -2.04 | CSCCC1NC(=O)N(CC(=O)N2N=C(c3ccc(Cl)cc3)CC2c2ccco2)C1=O (configuration not stated)
i | -0.73 | CC(=O)N1c2ccc(S(=O)(=O)NCC3CCC(C(=O)NCc4ccc(C)o4)CC3)cc2CC1C (configuration not stated)

# The final 6 compounds of the section above come first, to join the parts.
KCNQ2 inh | KCNQ2 inh baseline | molecule
i | -0.88 | COc1ccc(CCN(/C=C2\Sc3ccccc3C2=O)C(C)=O)cc1OC
i | -0.31 | O=C1c2ccccc2-c2onc3ccc(Oc4ccccc4)c1c23
i | -1.23 | O=C1SC(c2ccccc2)=N/C1=C/c1ccco1
i | 2.78 | O=C(c1ccc(F)cc1F)N(Cc1ccccn1)Cc1ccco1
i | -2.04 | CSCCC1NC(=O)N(CC(=O)N2N=C(c3ccc(Cl)cc3)CC2c2ccco2)C1=O (configuration not stated)
i | -0.73 | CC(=O)N1c2ccc(S(=O)(=O)NCC3CCC(C(=O)NCc4ccc(C)o4)CC3)cc2CC1C (configuration not stated)
i | -0.34 | CN(C)CCCN=Cc1c(-c2ccccc2)[nH]n(-c2nc3ccccc3s2)c1=O
i | 0.02 | O=C(CN(C1CCCCC1)S(=O)(=O)c1ccc(Cl)cc1)NCc1cccnc1
i | -1.32 | COc1ccccc1N1C(=O)CC(N2CCN(c3ccc(F)cc3)CC2)C1=O (configuration not stated)
i | -0.89 | Cc1cc(=O)n(Cc2ccccc2)c2ccccc12
i | 0.04 | CN(CCOc1ccccc1)CC(=O)Nc1cccc(C#N)c1
i | -1.08 | COc1ccc(C(=O)O)cc1NC(=S)NC(=O)CSc1ccc(Cl)cc1
i | 1.72 | Nc1ccc(Oc2ccc3nc(-c4ccccc4)c(-c4ccccc4)nc3c2)cc1
i | -0.37 | Cc1cc(/C([O-])=C(/C(=S)Nc2ccccc2)[n+]2ccccc2)c(C)n1-c1ccccc1
i | -0.13 | OCC1(Cc2cccc(Cl)c2)CCCN(Cc2ccc(F)c(F)c2)C1 (configuration not stated)
i | 0.33 | O=C(Nc1ccc2c(c1)OCO2)N1CCC(CO)(CC2CCCCO2)CC1 (configuration not stated)
i | 0.57 | CCCc1cc(C(=O)NCCc2ccccc2)no1
i | 0.53 | Oc1ccc(/C=N/NC(=S)NCCN2CCOCC2)c(O)c1
i | 1.63 | CCNC(=O)/C(=C/c1ccc2c(c1)OCO2)NC(=O)c1ccc(Br)cc1
i | 1.07 | O=[N+]([O-])c1ccccc1Oc1ccccc1Cl
i | -0.32 | COc1ccc(CN(C#N)c2nc(C)cc(C)n2)cc1
i | -0.02 | O=[N+]([O-])c1ccc(CSC2=NCCS2)cc1
i | 0.52 | COc1cc(/C=N/N(C)C2=NS(=O)(=O)c3ccccc32)cc(OC)c1OC
i | 0.24 | Cc1ccc(S(=O)(=O)N/N=C/c2ccc(O)c(O)c2)cc1[N+](=O)[O-]
i | 0.73 | O=C(c1ccc(F)cc1)N(NC(=O)C(O)(c1ccccc1)c1ccccc1)c1ccccc1
i | -1.55 | CN(c1ccc(C(=O)NCC2CCCO2)cc1)S(C)(=O)=O (configuration not stated)
i | -1.39 | Cc1cc(C(=O)Nc2ncn[nH]2)ccc1[N+](=O)[O-]
i | 1.95 | Cc1ccc(S(=O)(=O)NC(C)(C)CSc2nnc(N)s2)cc1
i | -1.04 | CC(CN1CCCCC1)NC(=O)c1cccs1 (configuration not stated)
i | 0.12 | Cc1c(C(=O)N2CCN(S(=O)(=O)c3ccc(F)cc3)CC2)oc2ccccc12
i | 1.26 | O=C(COc1cccc2c1CCNC2=O)Nc1cccc(C(F)(F)F)c1
i | 0.56 | O=C(Nc1cccc(F)c1)c1ccc(S(=O)(=O)N2CCCC2)cc1
i | -0.01 | CCOC(=O)c1c(C)[nH]c(C(=O)COC(=O)C23CC4CC(CC(Cl)(C4)C2)C3)c1C
i | 0.02 | NC(=O)NCc1cccnc1
i | 1 | OCCc1ccc(-c2ccc(Cl)cc2)o1
i | 1.66 | COc1ccc(S(=O)(=O)Cc2ccc(C(=O)NCc3ccccn3)o2)cc1

# 5 records drawn at random from those above, as already listed:
KCNQ2 inh | KCNQ2 inh baseline | molecule
i | -1.39 | Cc1cc(C(=O)Nc2ncn[nH]2)ccc1[N+](=O)[O-]
i | 0.12 | Cc1c(C(=O)N2CCN(S(=O)(=O)c3ccc(F)cc3)CC2)oc2ccccc12
i | 1.26 | O=C(COc1cccc2c1CCNC2=O)Nc1cccc(C(F)(F)F)c1
i | 1 | OCCc1ccc(-c2ccc(Cl)cc2)o1
i | 0.02 | NC(=O)NCc1cccnc1

# Continued:
KCNQ2 inh | KCNQ2 inh baseline | molecule
i | -0.18 | CCc1cccc(C)c1NC(=S)NCC1CCN(c2ccc(OC)cc2)C1 (configuration not stated)
i | 3.37 | Cc1cc(C)c2nc(N3CCCN(C(=O)c4ccco4)CC3)c(C#N)cc2c1
i | 0.03 | O=C(NNC(=O)c1ccc([N+](=O)[O-])o1)c1ccccc1
i | 0.51 | O=C(CCl)NN=C(c1ccccc1)c1ccccc1
i | -0.77 | Cc1onc(-c2ccccc2Cl)c1C(=O)NCCCN1CCOCC1
i | -0.88 | Cc1oc(-c2ccc(F)cc2)nc1CN(Cc1ccccn1)CC1CCCO1 (configuration not stated)
i | -1.57 | O=S(=O)(c1ccccc1)c1cnn(-c2ccccc2)c1-c1ccc(F)cc1
i | 0.63 | Cc1cc(N/C=C\C(=O)c2ccc(Cl)c(Cl)c2)no1
-6.17* | -1.61* | Cc1cc(C(C)(C)C)oc1C(=O)N(CC(=O)NC1CCCC1)Cc1ccccc1Cl
-7* | -0.18* | Cc1cc(C(C)(C)C)oc1C(=O)N(CC(=O)NC1CCCC1)c1c(C)cccc1C
i | -1.91 | C/C(=N/NC(=O)c1nnn(-c2nonc2N)c1-c1ccccc1)c1ccncc1
i | -1.8 | O=C(O)c1ccc(Cn2cnc3cccnc32)cc1
i | -4.09 | O=C(O)CSCC(=O)N1CCN(c2ccnc3cc(Cl)ccc23)CC1
i | 1.05 | CN1C(=O)C(C)(C)c2cc(S(=O)(=O)N3CCCC3C(=O)NCc3ccccc3Cl)ccc21 (configuration not stated)
i | -1.04 | CC(NC(=O)c1ccco1)c1ccc(-n2ccnc2)cc1 (configuration not stated)
i | -0.51 | CCOP(=O)(OCC)C(C#N)=C1SCN(c2ccccc2)CS1
i | 0.04 | CCCOC(=O)C1=C(C)NC2=C(C(=O)CC(C)(C)C2)C1c1cccnc1 (configuration not stated)
i | 3.52 | N#CC(Nc1ccccc1)c1ccccc1OCc1ccccc1 (configuration not stated)
i | 0.12 | CCN(CC)CC#CCC(O)(c1ccccc1)C1CCCCC1 (configuration not stated)
i | -1.01 | Cc1nc(C(=O)NCC(=O)c2ccc(Cl)cc2)c(C(F)(F)F)o1
i | 0.89 | CCOc1cccc(OCCCOc2cccc3cccnc23)c1
i | 0.85 | COc1cc(NS(=O)(=O)c2cc(C)ccc2OC)c(OC)cc1Cl
i | 0.83 | C/C(=N\NC(=O)c1ccc2c(c1)OCO2)c1ccc(NC(=O)CCCC(=O)O)cc1
i | 0.12 | c1ccc(CCNc2nc(-c3ccccn3)cs2)cc1
i | -0.39 | COc1ccc(C2C(C(=O)N3CCN(c4ccc(OC)cc4)CC3)c3ccccc3C(=O)N2C)cc1 (configuration not stated)
i | -1 | COc1ccccc1C/C(N)=N/OC(=O)/C=C/c1ccccc1
i | 3.17 | CCOC(=O)/C(=N/O)C1=NC(C)(C)Cc2cc(C)c(C)cc21
i | -0.39 | NS(=O)(=O)c1ccc(N=C2C(=O)Nc3ccccc32)cc1
i | -0.6 | COc1ccc(C)cc1S(=O)(=O)N(CC(=O)Nc1cccc([N+](=O)[O-])c1)c1ccc(C)c(C)c1
i | -0.81 | CCCCCN1CC(=O)N2C(C)c3[nH]c4ccccc4c3C[C@H]2C1=O (some centres not stated)
i | -0.01 | O=C(N/N=C/c1ccc2c(c1)OCO2)c1ccc(NC(=O)c2ccccc2Cl)cc1
i | -1.49 | O=C(N/N=C\c1ccoc1)c1ccco1
i | -1.74 | CC1CCCCN1C(=O)CSc1nc2ccccc2[nH]1 (configuration not stated)
i | 0.37 | O=C(CSc1ccccn1)Nc1cccc(NC(=O)CSc2ccccn2)n1
i | -0.12 | COCCc1ncc(CN2CCC(C(=O)Nc3cccc(-c4cscn4)c3)CC2)cn1
i | -0.59 | CCOC(=O)/C(=N/Nc1ccc(OC)cc1)N1CCCc2ccccc21
i | 0.04 | Cc1ccc(S(=O)(=O)NCC(=O)N(CC(=O)NCc2ccco2)Cc2ccc(F)cc2)cc1
i | -0.84 | O=C(Nc1cccc2cccnc12)c1ccccc1Br
i | -1.01 | CS(=O)(=O)c1ccc2nc(NC(=O)CN3CCC(Cc4ccccc4)CC3)sc2c1
i | 0.15 | COc1ccc(/C=N/N2CCN(c3ccc(Cl)cc3)CC2)cc1O
i | 0.03 | Nc1nonc1-n1nnc(C(=O)N/N=C/c2ccoc2)c1CSc1ccccc1
i | -1.77 | O=S(=O)(c1cccc(C(F)(F)F)c1)N1CCN(c2ccccc2)CC1
i | 0.11 | COc1ccc(/C=c2/sc3nc(-c4ccccc4)c(-c4ccccc4)n3c2=O)cc1
i | -0.8 | C[C@@H](CN1C(=O)C(=O)NC[C@@H]1C)NC(=O)CC12CC3CC(CC(C3)C1)C2
i | -1.5 | O=C(COc1ccc(S(=O)(=O)NCc2ccccc2)cc1Cl)NCc1ccccn1
i | 0.36 | Cc1sc2ncnc(N3CCC(C(=O)Nc4ccc(C#N)cc4)CC3)c2c1C
i | 0.83 | COC(=O)c1sccc1NC(=S)N1CCCCC1C (configuration not stated)
i | -1.03 | O=C(Cn1nnc(-c2ccccc2)n1)Nc1ccccc1N1CCOCC1
i | 0.72 | CC(C)c1nc2ccccc2c2nnc(SCC(=O)NCc3ccco3)n12
i | -0.05 | COC(=O)C1=C(C(=O)OC)SC(=C2C(=S)C(C)(C)N(C(=O)C3CC3)c3ccccc32)S1

# Remaining list, next part:
KCNQ2 inh | KCNQ2 inh baseline | molecule
i | -0.42 | Cc1cc(C)cc(N(CC(=O)NCC2CCCO2)C(=O)CCC(=O)Nc2nccs2)c1 (configuration not stated)
i | 1.82 | CC1=NN(C(=O)Cc2ccc([N+](=O)[O-])cc2)C(O)(C(F)(F)C(F)(F)F)C1 (configuration not stated)
i | 0.9 | CC(C)c1ccc(NC(=S)NN(c2ccccc2)c2ccccc2)cc1
i | -2.41 | COc1cccc(OC)c1C(=O)Nc1ccccc1C(=O)N1CCOCC1
i | -0.04 | Cc1cccc(N(C)C(=O)COc2cc(=O)n(C)c3ccccc23)c1
i | -2.72 | O=C(NCC1CCCO1)C(c1ccc(F)cc1)N(CC1CCCO1)C(=O)c1ccc(-c2ccccc2)[nH]1 (configuration not stated)
i | -0.48 | Cn1cccc1C(=O)NNC(=O)COc1ccc(Br)cc1
i | 0.62 | FC(F)(F)c1cnc(Oc2ccc(-c3nnco3)cc2)c(Cl)c1
i | 1.35 | COc1cccc(-c2cc(C(=O)NC3CC3)c3ccccc3n2)c1
i | 0.97 | CCCn1c(N)c(N(CCOC)C(=O)Cc2ccc(S(=O)(=O)N3CCOCC3)s2)c(=O)[nH]c1=O
i | -1.91 | O=C(NNC(=O)C1CCN(S(=O)(=O)c2ccc(Cl)cc2)CC1)c1ccc(S(=O)(=O)N2CCCCC2)cc1
i | 20.3 | CC(=O)Oc1ccc2c(c1)O/C(=C\c1ccncc1)C2=O
i | -0.47 | N#Cc1c(-c2cccc(Cl)c2)[nH]c(=S)[nH]c1=O
i | 1.6 | CCOC(=O)C1=C(C)OC(N)=C(C#N)C1c1ccc(C)s1 (configuration not stated)
i | 0.22 | CCOc1ccc(C(=O)N2CCN(c3cnn(-c4ccccc4)c(=O)c3Cl)CC2)cc1
i | 0.83 | O=C(/C=C\c1ccco1)Nc1ccc(N2CCN(C(=O)c3ccccc3)CC2)cc1
i | -2.12 | O=C(COc1cccc2ccccc12)N/N=C/c1ccc(Sc2nc3ccccc3s2)o1
i | -0.8 | O=C(N/C(=C/c1ccc(F)cc1)C(=O)N1CCCC1)c1ccccc1
i | -0.55 | Cc1cccc(CN2C(=O)CSc3ccc(C(=O)NC4CC4)cc32)c1
i | 1.29 | O=C1C2C3C=CC(CC3)C2C(=O)N1/N=C/c1c[nH]c2ccccc12 (configuration not stated)
i | 0.19 | COCCNC(=O)CCc1c(C)nc2c(c(C)nn2-c2ccc(C)cc2)c1C
i | 0.01 | CCOC(=O)c1ccc(NC(=O)CN2C(=O)C(C)SC(C)C2=O)cc1 (configuration not stated)
i | -0.81 | Cc1ccc(C(=O)NC(=S)NNC(=O)c2ccccc2[N+](=O)[O-])cc1
i | 1.13 | CC(C)C(=O)N1CCN(c2nc(-c3ccccc3)c3c(c2C#N)CCCC3)CC1
i | -0.68 | COc1ccc(S(=O)(=O)NCc2ccccc2Cl)cc1OC
i | -2.36 | CCc1cc(-c2n[nH]c(=S)n2N)n(C)n1
i | -0.18 | CCOC(=O)COc1c(C=O)cc(Br)cc1OC
i | -1.82 | O=C(Cc1cccs1)Nc1ccc(-c2nnn(CC(=O)N3CCOCC3)n2)cc1
i | -1.57 | O=C(CC(c1ccc(F)cc1)c1ccco1)Nc1nccs1 (configuration not stated)
i | 1.8 | Cc1c(C(=O)Nc2nccs2)sc2nc(-c3cccs3)cc(C(F)(F)F)c12
i | 1.24 | CS(=O)(=O)c1ccccc1-c1nnc(NC(=O)c2ccc(S(=O)(=O)N3CCCC3)cc2)o1
i | 0.55 | Fc1cccc(CNCc2ccc3c(c2)OCO3)c1
i | -0.44 | CCNC(=O)Nc1ccccc1C(=O)OC

# Source: PubChem BioAssay (Johns Hopkins Ion Channel Center)
